Screening data deposited in PubChem BioAssay by National Center for Advancing Translational Sciences (NCATS).
NS1 function inh: influenza NS1 inhibition | S. cerevisiae slowed by influenza A NS1, growth recovery by OD600 | Potency, µM (doses to about 46.1 µM), inactives show top-dose activity, positive = more growth | 270,000 tested, 0.4% active | AID 2326; further: actives are rising curves; nearly all actives have a fitted effect of over 50% in size
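Growth recovery, yeast-based: influenza A NS1 expressed in S. cerevisiae causes slow growth, and suppressors are detected by OD600. The parent strain without NS1 is used as positive control.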
Lassa entry inh: Lassa virus entry inhibition. AID 540256. Lassa virus pseudotype entry inhibition, cell reporter; control for the full effect not named in the record. 300,000 tested, 1.2% active. Potency, µM (doses to about 37.9 µM), for inactives: at the top dose activity change, negative = inhibition, most hits filed as inhibitors; active means well fitted inhibition curve with a large enough effect; inconclusive means small, poorly fitted or top-dose-only effect, or effect the other way; inactive means flat fitted curve, though single readings scatter; tested in HEK293 cells; further: on the % scale 0 is the no-effect control and ±100 the full control effect; nearly all actives have a fitted effect of over 50% in size; luciferase read-out
Cruzain inh noDet: blocks cruzain activity in detergent-free assay; Potency, µM, for the others: max response, negative = inhibition, most hits filed as inhibitors; 200,000 tested, 2.3% active; P25779; purified cruzain, Z-FR-AMC fluorescence, no detergent; active means well fitted curve in the direction sought with a large enough effect; inconclusive means small, poorly fitted or top-dose-only effect, or another doubt; inactive means no such curve, though single readings can be large; an effect the other way counts as inactive or inconclusive;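 further: plate controls were enzyme without inhibitor for no effect and buffer without enzyme for full effect; nearly all actives have a fitted effect of over 40% in size; top concentration of the series not given in the record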
Target sequence (P25779 123-467 limits assumed): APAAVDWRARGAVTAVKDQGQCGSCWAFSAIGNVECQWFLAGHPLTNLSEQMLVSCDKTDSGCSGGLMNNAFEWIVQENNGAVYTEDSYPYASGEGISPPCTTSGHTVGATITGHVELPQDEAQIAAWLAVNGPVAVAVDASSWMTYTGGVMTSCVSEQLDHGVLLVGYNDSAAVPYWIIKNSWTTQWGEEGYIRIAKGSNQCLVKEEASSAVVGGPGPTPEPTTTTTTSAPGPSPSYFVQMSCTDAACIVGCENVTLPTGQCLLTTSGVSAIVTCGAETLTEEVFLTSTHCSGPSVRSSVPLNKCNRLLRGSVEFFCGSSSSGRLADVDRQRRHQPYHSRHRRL
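Purified cruzain at 1.5 nM, pre-incubated 15 min with compound at room temperature in 100 mM sodium acetate pH 5.5, 5 mM DTT, 0.00005% Triton X-100. Reaction started with 2 uM Z-FR-AMC; AMC fluorescence increase over 60 s gives rate.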
RE007 growth inh: less growth of the S. pombe RE007 Vpr strain; AID 651644; 360,000 tested, 0.21% active; Potency, µM (highest dose often 92.2 µM), inactives show at the highest dose activity change, negative = less growth; S. pombe RE007 Vpr strain, BacTiter-Glo ATP luminescence, 24 h; control for the full effect not named in the record; active = well fitted falling curve with a large enough effect; inconclusive = small, poorly fitted or top-dose-only effect; inactive = no such curve, though single readings can be large or run the other way;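 further: on the % scale 0 is the no-effect control and ±100 the full control effect; nearly all actives have a fitted effect of over 50% in size; the assay follows cell death caused by Vpr and the record does not say whether a fall means rescue or toxicity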
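Fission yeast RE007 carrying one integrated HIV-1 vpr copy, seeded at OD 0.01 in PMG+AL medium with 23 nL pinned compound. Grown 24 h at 30 degrees; viability read by BacTiter-Glo luminescence after 5 min.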
Marburg entry inh: inhibitors of Marburg virus binding or cell entry; AID 540276; Marburg virus pseudotyped entry inhibition, cell reporter; control for the full effect not named in the record; about a third of the inactives were read at about 46 µM; 300,000 tested, 1.8% active; Potency, µM (highest dose often 37.8 µM), without a hit: at the top dose activity change, negative = inhibition, hits mostly inhibitors; active = well fitted inhibition curve with a large enough effect; inconclusive = small, poorly fitted or top-dose-only effect, or effect the other way; inactive = flat fitted curve, though single readings scatter; tested in HEK293 cells; about a fifth of its hits are not listed in these tables; further: on the % scale 0 is the no-effect control and ±100 the full control effect; luciferase read-out
SARS PLP yeast: inhibitors of SARS-CoV papain-like protease in yeast; Potency, µM (top dose mostly 32.9 µM), inactives show top-dose activity, positive = growth rescue; S. cerevisiae expressing SARS-CoV PLpro, growth rescue; control for the full effect not named in the record; 330,000 tested, 0.19% active; further: 0% is about no effect; nearly all actives have a fitted effect of over 55% in size; growth read by luminescence after 48 h
Cruzain Triton: blocks cruzain activity in presence of Triton detergent | P25779 | purified cruzain, Z-FR-AMC fluorescence, 0.01% Triton | Potency, µM, without a hit: max response, negative = inhibition, most hits filed as inhibitors | 200,000 tested, 0.43% active | AID 1478; active means well fitted curve in the direction sought with a large enough effect; inconclusive means small, poorly fitted or top-dose-only effect, or another doubt; inactive means no such curve, though single readings can be large; an effect the other way counts as inactive or inconclusive;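 further: plate controls were neutral wells for no effect and buffer without enzyme for full effect; nearly all actives have a fitted effect of over 40% in size; top concentration of the series not given in the record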
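Enzyme 1.5 nM, Z-FR-AMC 2 uM, NaOAc 100 mM pH 5.5, DTT 5 mM, Triton X-100 0.01%; 15 min RT compound preincubation; kinetic ex360/em450, 60 s delta.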
StopGo reporter: FMDV 2A StopGo reporter, luciferase signal; human cells with a luciferase reporter of 2A StopGo recoding; control for the full effect not named in the record; Potency, µM (series often up to 57.9 µM), for the others: at the top dose signal change, negative = less light; 410,000 tested, 1.2% active; AID 1159524; active = well fitted falling curve with a large enough effect; inconclusive = small, poorly fitted or top-dose-only effect; inactive = no such curve, though single readings can be large or run the other way; tested in HEK293T cells; further: on the % scale 0 is the no-effect control and ±100 the full control effect; nearly all actives have a fitted effect of over 45% in size; luciferase light after 4 h
* hit, by the source's call; ? = inconclusive; nt = not tested or not shown; & = joins results of further samples; [ ] = another dose, or the depositor's remark. Unless noted, the call rests on the fitted dose curve; in most records, active means well fitted rising curve with a large enough effect; inconclusive means small, poorly fitted or top-dose-only effect; inactive means no such curve, though single readings can be large or run the other way. Potency means the concentration at half of the fitted maximal effect.

SMILES	NS1 function inh	Lassa entry inh	Cruzain inh noDet	RE007 growth inh	Marburg entry inh	SARS PLP yeast	Cruzain Triton	StopGo reporter
CC(Oc1ccc2c(-c3ccccc3)cc(=O)oc2c1)C(=O)N[C@H](Cc1c[nH]c2ccccc12)C(=O)O (some centres undefined)	?	nt	nt	9%	nt	1%	nt	-16%
O=C(Nc1cccc2nsnc12)C1CC(=O)N(c2ccccc2)C1 (centres undefined)	-6%	-1%	-11%	7%	-4%	-7%	8.1%	-24%
COc1cc(C2c3c(oc4ccc(C)cc4c3=O)C(=O)N2Cc2ccccc2)ccc1O (centres undefined)	nt	-1%[46.1 µM]	8%	nt	-16%[46.1 µM]	nt	-1.9%	4%
O=C(N/N=C/c1ccc2cccc(OCc3ccccc3)c2n1)c1ccc(Cl)cc1	8%	-18%	?	-9%	?	2%	-0.8%	-20%
CCOCCn1c(CN2CCOCC2)nc2c1c(=O)[nH]c(=O)n2C	6%	nt	-5%	20%	nt	-6%	-3.2%	-18%
CCn1c(NN)nc2sc3c(c2c1=O)CCC3	1%	-24%	-7%	1%	9%	-2%	-4.4%	2%
CC(=O)C1=C(C)NC(SCC(=O)c2ccc(-c3ccccc3)cc2)=C(C#N)C1c1cccnc1 (centres undefined)	11%	nt	-4%	nt	-4%	-3%	-6.0%	nt
Cc1ccc(-c2csc(=Nc3cccnc3)n2CCCn2ccnc2)cc1C	20%	?	-18%	-6%	?	6%	-3.8%	16µM*
CCOC(=O)C1CCN(C(=O)COC(=O)CSc2ccccc2C)CC1	nt	4%[46.1 µM]	nt	10%	13%[46.1 µM]	19%	nt	14%
CCOC(=O)C(=CN=C(N)Nc1nc2ccccc2o1)C(=O)OCC	4%	1%	nt	1%	?	0%	nt	40%[activator]
Cc1ccc(NC(=O)Cc2c(C(=O)O)c(C)cn2C)cc1Cl	nt	5%[46.1 µM]	-13%	nt	nt	nt	-0.6%	-10%
COC(=O)C(NS(=O)(=O)c1ccc(C)cc1)c1ccccc1 (centres undefined)	nt	15%[46.1 µM]	nt	9%	?	1%	nt	-7%
Cc1ccccc1N1C(=O)NC(=O)/C(=C\c2cc(Br)c(N3CCOCC3)o2)C1=O	10%	3%	-10%	4%	?	-7%	-11%	16µM*
COCCN(CCOC)S(=O)(=O)c1ccc(C(=O)Nc2nnc(C)o2)cc1	0%	4%	-13%	-8%	-22%[46.1 µM]	0%	5.9%	-7%
CCOCCCNC(=S)N1C2CCC1CC(NC(=O)NC13CC4CC(CC(C4)C1)C3)C2 (centres undefined)	4%	3%	?	-8%	3%	3%	4.9%	nt
O=C(N/N=C/C=C/c1ccc2c(c1)OCO2)c1ccc([N+](=O)[O-])cc1	-8%	-24%	?	8%	7%	7%	1.2%	nt
CCCc1nnc(NC(=O)Cn2c(=O)sc3ccccc32)s1	13%	-14%	-8%	-14%	0%	-5%	3.2%	-12%
CCCCOCCCn1c(N)c(C(=O)OC(C)COC)c2nc3ccccc3nc21 (centres undefined)	-3%	2%	?	-3%	?	8%	-9.0%	-28%
COc1ccc(C(C(=O)NC2CCCCC2)N(Cc2cccnc2)C(=O)c2snc(C(N)=O)c2N)cc1 (centres undefined)	-4%	-22%[46.1 µM]	nt	4%	0%[46.1 µM]	-2%	nt	-1%
CC1CC(CC(C)C(=O)Nc2nncs2)C(=O)O1 (centres undefined)	7%	20%	0%	-7%	9%	13%	1.7%	0%
COc1ccc(C)cc1S(=O)(=O)N1CCCC(N2CCOCC2)C1 (centres undefined)	-9%	nt	nt	-10%	nt	3%	nt	-4%
Cc1nnc(SCC(=O)N2CCc3ccccc3C2)n1-c1ccccc1	-50%	-12%	?	4%	?	-3%	1.4%	-6%
CCOc1ccc(C(=O)N2CC(=O)Nc3ccc(F)cc3C2c2ccc(F)cc2)cc1 (centres undefined)	nt	nt	4%	nt	?	nt	-4.6%	-4%
CCOC(=O)c1ccc(NC(=O)C2CC(=O)NC(=Nc3ccc(C)c(C)c3)S2)cc1 (centres undefined)	nt	-1%[46.1 µM]	19%	nt	-3%[46.1 µM]	nt	-4.0%	-20%

Some of the entries so far, with values under each structure.
Screens in order: NS1 function inh, Lassa entry inh, Cruzain inh noDet, RE007 growth inh, Marburg entry inh, SARS PLP yeast, Cruzain Triton, StopGo reporter
> Cc1ccccc1N1C(=O)NC(=O)/C(=C\c2cc(Br)c(N3CCOCC3)o2)C1=O
→ 10%, 3%, -10%, 4%, ?, -7%, -11%, 16µM*
> COCCN(CCOC)S(=O)(=O)c1ccc(C(=O)Nc2nnc(C)o2)cc1
→ 0%, 4%, -13%, -8%, -22%[46.1 µM], 0%, 5.9%, -7%
> CCOCCCNC(=S)N1C2CCC1CC(NC(=O)NC13CC4CC(CC(C4)C1)C3)C2 (centres undefined)
→ 4%, 3%, ?, -8%, 3%, 3%, 4.9%, nt
> O=C(N/N=C/C=C/c1ccc2c(c1)OCO2)c1ccc([N+](=O)[O-])cc1
→ -8%, -24%, ?, 8%, 7%, 7%, 1.2%, nt
> CCCc1nnc(NC(=O)Cn2c(=O)sc3ccccc32)s1
→ 13%, -14%, -8%, -14%, 0%, -5%, 3.2%, -12%
> CCCCOCCCn1c(N)c(C(=O)OC(C)COC)c2nc3ccccc3nc21 (centres undefined)
→ -3%, 2%, ?, -3%, ?, 8%, -9.0%, -28%

Following part
SMILES	NS1 function inh	Lassa entry inh	Cruzain inh noDet	RE007 growth inh	Marburg entry inh	SARS PLP yeast	Cruzain Triton	StopGo reporter
O=C(CSc1c2c(nc3cc(Cl)ccc13)CCCC2)N1CCN(c2ccccc2)CC1	nt	-10%[46.1 µM]	-11%	nt	-27%[46.1 µM]	nt	-8.9%	?
O=S1(=O)N=C(N(CCO)/N=C/c2ccncc2)c2ccccc21	nt	-3%	nt	-5%	-2%[46.1 µM]	4%	nt	7%
O=[N+]([O-])c1cnn(-c2nc(-c3ccccc3)cc(C(F)(F)F)n2)c1	-6%	17%[46.1 µM]	nt	5%	?	15%	nt	-17%
C=CCN(CC=C)C(=O)c1c(OC)cccc1OC	3%	5%	15%	-3%	19%	19%	-0.2%	-9%
Cc1ccc(C(=O)NS(=O)(=O)c2ccccc2)cc1	-5%	1%	nt	-14%	8%[46.1 µM]	0%	nt	5%
Cc1ccc2[nH]c(=O)c(CN(Cc3ccco3)C(=O)c3ccncc3)cc2c1	7%	?	-7%	6%	-3%	11%	-3.0%	-11%
Cc1csc(NC(=O)CSCc2c(C)noc2C)n1	nt	?	nt	-20%	-2%[46.1 µM]	5%	nt	7%
Cc1ccnc(NS(=O)(=O)c2ccc(NC(=O)Cc3ccc(F)cc3)cc2)n1	2%	nt	nt	4%	nt	0%	nt	17%
O=C(C1CC1)N1CCc2cc(Br)cc(S(=O)(=O)NCc3ccc4c(c3)OCO4)c21	?	-4%	?	4%	-20%&-20%[46.1 µM]	-5%	0.2%	69%[activator]
CC(C)OCCCn1c(NN)nc2ccccc2c1=O	-5%	2%	nt	-10%	6%[46.1 µM]	-3%	nt	20%
CCCCCCN1CC(O)=C(c2nc3ccccc3[nH]2)C1=N	0%	9%	-7%	-8%	1%	3%	0.8%	nt
CN1CCN(C(=O)c2ccc3c(c2)N(Cc2ccc(Cl)cc2)C(=O)c2ccccc2S3(=O)=O)CC1	nt	1%[46.1 µM]	-3%	nt	0%[46.1 µM]	nt	-1.8%	11%
O=C(NC(=S)N1CCN(c2ccc([N+](=O)[O-])cc2)CC1)c1ccccc1F	17%	-21%	-11%	2%	-27%	2%	-14%	0%
COc1cc(OC)c(NC(=S)NCc2ccc(F)cc2)cc1Cl	0%	-12%	nt	7%	19%[46.1 µM]	0%	nt	69%[activator]
CCCCc1nn2c(N)c(/C=C3\C=Nc4ccccc43)c(=O)nc2s1	?	-19%	?	2%	-3%	29%	0.6%	-3%
CC(c1ccco1)N(C(=O)c1ccccc1NS(=O)(=O)c1cc([N+](=O)[O-])ccc1Cl)c1ccccn1 (centres undefined)	?	12%	?	10%	0%	-28%	-4.7%	2%
CC(C)(C)C(=O)OCCn1c(=O)c2cc3c(=O)n(CCOC(=O)C(C)(C)C)c(=O)c3cc2c1=O	-5%	0%	10%	-3%	4%&4%	0%	-1.7%	-2%
OCC1(Cc2ccccc2)CCN(Cc2ccc(-c3ccco3)cc2)CC1	3%	nt	nt	-6%	nt	0%	nt	?
O=C(CSc1nc2ccccc2c(=O)n1-c1ccccc1F)N1CCOCC1	nt	3%	nt	11%	-1%	20%	nt	-2%
CC(C)(C)c1ccc(NC(=O)Nc2ccc(F)cc2)cc1	-4%	?	nt	5%	?	-1%	nt	-37%
CCN1CCN(c2cc(C)c3cc(NC(=O)/C=C/c4cccc(Cl)c4)ccc3n2)CC1	nt	1%[46.1 µM]	-2%	nt	5.6µM*	nt	-5.1%	-7%
Cc1occc1C(=O)N1CCCC(Nc2ccc(C(C)C)cc2)C1 (centres undefined)	-156%	7%	nt	-2%	?	?	nt	0%
Cc1ccc2nc(NC(=O)COC(=O)CSc3nc(C)cc(C)n3)sc2c1	12%	?	-2%	-6%	13%	9%	-13%	54%[activator]
CC(=O)c1cccc(NC(=O)C2CCCCC2)c1	-13%	-9%	-3%	10%	24%	1%	1.3%	26%

Arranged by length of the SMILES (ascending): part of the list above
SMILES	NS1 function inh	Lassa entry inh	Cruzain inh noDet	RE007 growth inh	Marburg entry inh	SARS PLP yeast	Cruzain Triton	StopGo reporter
CC(=O)c1cccc(NC(=O)C2CCCCC2)c1	-13%	-9%	-3%	10%	24%	1%	1.3%	26%
COc1cc(OC)c(NC(=S)NCc2ccc(F)cc2)cc1Cl	0%	-12%	nt	7%	19%[46.1 µM]	0%	nt	69%[activator]
O=C(CSc1nc2ccccc2c(=O)n1-c1ccccc1F)N1CCOCC1	nt	3%	nt	11%	-1%	20%	nt	-2%
Cc1ccc2nc(NC(=O)COC(=O)CSc3nc(C)cc(C)n3)sc2c1	12%	?	-2%	-6%	13%	9%	-13%	54%[activator]
